UCH37 inh: human UCH37 deubiquitinating enzyme inhibition; Q9Y5K5; purified proteasome/UCH37, Ub-AMC cleavage fluorescence; inhibition, % (no concentration beside the values); 0.33% of 330,000 active; AID 588478;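 active means mean of two replicates above 20%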;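 further: 0% = compound-free wells with enzyme and 100% = wells lacking proteasome; stock transfer was 100 nL into about 20 µL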
Target sequence (Q9Y5K5 whole entry, looked up): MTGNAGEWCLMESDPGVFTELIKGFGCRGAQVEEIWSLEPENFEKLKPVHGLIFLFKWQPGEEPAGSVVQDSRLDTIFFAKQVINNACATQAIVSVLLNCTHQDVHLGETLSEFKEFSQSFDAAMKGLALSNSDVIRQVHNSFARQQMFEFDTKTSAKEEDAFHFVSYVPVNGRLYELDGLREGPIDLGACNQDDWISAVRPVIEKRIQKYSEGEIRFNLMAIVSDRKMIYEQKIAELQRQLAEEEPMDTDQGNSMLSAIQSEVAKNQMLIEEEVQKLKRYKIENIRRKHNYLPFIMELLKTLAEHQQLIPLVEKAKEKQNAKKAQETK
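system = Proteasome-associated human UCH37 deubiquitinase | amount = 0.15 nM proteasome as dispensed | medium = pH 7.4 Tris-HCl (50 mM) with ovalbumin, ATP-MgCl2, DTT | incubation = 30 min preincubation with enzyme, 25 min cleavage at room temperature | detection = AMC fluorescence 355/460 nm | read-out basis = percent inhibition | controls = no-proteasome and no-compound wells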
HNF4A DNA FP: change in binding of human HNF4 alpha to DNA | 0.3% of 360,000 active | AID 1224865 | P41235 | HNF4a-FITC DNA binding, fluorescence polarization, 1 h | activity change, % at 10 µM; in the data active means activity change above about 30%, passing the limit was not always enough;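 further: controls were the assay level and a saturating level of protein; the project sought stronger binding though the title names inhibitors; some compounds called inactive have numbers as strong as hits; positive values seem to mean higher polarization but the record does not say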
Vif TR-FRET: inhibitors of Vif binding to APOBEC3G peptide, primary screen, biochemical, TR-FRET, GST-Vif 1-94, biotin-A3G peptide, dose response retest (AID 1117319); 0.57% of 260,000 active; one-dose inhibition, %; IC50 in µM for titrated hits; TR-FRET GST-Vif / biotin-A3G peptide binding; higher % means a stronger effect; test concentration not given here; strong numbers were not always called active;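 active means above the screen mean plus three standard deviations and confirmed in dose response; inconclusive means results disagree or hit not tested in dose response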;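 further: Vif residues 1-94 fused to GST binding biotinylated APOBEC3G peptide 110-148; 0% = full assay without inhibitor and 100% = GST in place of GST-Vif; retest series ran down from 100 µM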
AF4-AF9 inh: inhibitors of human MLL-AF4/AF9 interaction; P42568; AlphaScreen, biotin-AF4 peptide binding to FLAG-AF9; inhibition, % at 10 µM; 0.47% of 350,000 active;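 active means every replicate reaching a set inhibition limit, whatever the replicate mean, cut at about 25% in these data; inconclusive means mean inhibition reaches that limit but some replicates miss it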;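 further: 0% = plate neutral control median and 100% = total signal loss; the record names both 10 and 1 µM as test concentration; the first replicate is given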
Target sequence (P42568 whole entry, looked up): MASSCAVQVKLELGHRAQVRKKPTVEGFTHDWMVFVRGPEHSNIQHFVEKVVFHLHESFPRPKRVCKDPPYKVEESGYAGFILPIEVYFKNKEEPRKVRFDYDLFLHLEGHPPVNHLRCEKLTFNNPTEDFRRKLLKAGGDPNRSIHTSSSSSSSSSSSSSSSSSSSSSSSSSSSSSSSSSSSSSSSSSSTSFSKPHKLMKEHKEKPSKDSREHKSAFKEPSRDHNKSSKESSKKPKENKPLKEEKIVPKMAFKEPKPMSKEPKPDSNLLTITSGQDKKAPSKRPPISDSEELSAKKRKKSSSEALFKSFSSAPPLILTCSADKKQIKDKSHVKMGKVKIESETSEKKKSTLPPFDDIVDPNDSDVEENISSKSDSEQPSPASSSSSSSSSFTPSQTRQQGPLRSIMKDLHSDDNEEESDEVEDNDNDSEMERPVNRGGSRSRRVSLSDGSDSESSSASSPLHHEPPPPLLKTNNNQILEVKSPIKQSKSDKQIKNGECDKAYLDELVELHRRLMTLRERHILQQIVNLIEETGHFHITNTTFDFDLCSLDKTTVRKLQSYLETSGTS
FGF22 binding: shifts melting point of recombinant human FGF22; Q9HCT0; recombinant FGF22 thermal shift, SYPRO orange fluorescence; percent of sucrose octasulfate shift, DMSO zero; calls only at 9.99 µM; 1.5% of 340,000 active; AID 651658;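 active means melting point raised past a set limit in the mean and every replicate; inconclusive means no clear call; three in four hits are not shown here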
Target sequence (Q9HCT0 whole entry, looked up): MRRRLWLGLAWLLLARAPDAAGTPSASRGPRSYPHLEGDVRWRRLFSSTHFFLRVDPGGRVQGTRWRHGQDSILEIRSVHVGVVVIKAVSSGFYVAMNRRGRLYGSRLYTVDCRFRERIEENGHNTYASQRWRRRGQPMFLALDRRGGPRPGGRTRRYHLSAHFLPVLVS
Ecoli growth: blocks Escherichia coli growth; OD600 absorbance (no concentration beside the values); OD600, 23 h; stronger effect = lower value; 0.21% of 330,000 active; AID 1053175;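 active means OD600 absorbance below the run mean of sample wells minus 3.6 SD, in any replicate, cut at about 0.56 in these data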;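 further: stock transfer was 300 nL into about 60 µL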
RanGTP-Impb inh: disruptors of Ran-importin-beta complex formation – biochemical, FRET, CFP-Ran, YFP-importin-beta, homogeneous, primary screen. cell-free CFP-Ran/YFP-importin-beta FRET ratio. inhibition, % (no concentration beside the values). 1.1% of 300,000 active. AID 2216;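 active means most replicates above 15%; inconclusive means exactly half above 15%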;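 further: 0% = DMSO wells and 100% = Ran loaded with GDP instead of GTP; wells of about 40 µL received 100 nL stock; the first replicate is given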
The depositor's hits bear a star; i = inactive; u = inconclusive; x = not tested or not shown; & = joins results of further samples.

SMILES | UCH37 inh | HNF4A DNA FP | Vif TR-FRET | AF4-AF9 inh | FGF22 binding | Ecoli growth | RanGTP-Impb inh
Cc1cccc(-n2c(SC(C)C(=O)O)nc3sc4c(c3c2=O)CCCC4)c1 (stereo not given) | 7.4 | -2.3 | -5.4% | -3.2 | i | 0.661 | 1.1
COc1ccc(NC(=O)CSc2nc(O)cc(=O)n2-c2ccccc2OC)cc1 | 2.2 | 5.1 | u | -74.0 | i | 0.7 | 1.0
Cc1cccc(NC(=O)c2cccc(S(=O)(=O)NCc3ccccc3)c2)n1 | 2.5 | 0.8 | -7.2% | -0.9 | i | 0.689 | 0.3
COC(=O)c1cc2n(n1)CCN(Cc1ccccc1Cl)C2=O | 2.2 | -1.7 | 2.6% | x | x | 0.689 | -4.4
COc1ccc([C@H]2CC(=O)C=C(c3ccc(OC(F)(F)F)cc3)C2)cc1OC | 1.5 | -0.4 | x | 7.3 | i | x | x
CCC(C)NC(=O)C1c2ccccc2C(=O)N1Cc1ccccc1OC (stereo not given) | 1.8 | -1.1 | 26.0% | x | x | 0.656 | -1.7
Cc1ccc(C)c(Cn2nnc3c(=O)[nH]c(C(=O)Nc4ccc(F)cc4)nc32)c1 | -2.1 | -1.9 | -1.4% | -1.2 | x | 0.681 | 0.0
CCC1(C)Cc2ccccc2-c2nc(SC)[nH]c(=O)c21 (stereo not given) | -6.3 | 5.8 | x | 0.1 | i | 0.634 | 4.4
CC(CC(=O)O)CC(=O)Nc1ccccc1C(=O)O (stereo not given) | 4.2 | 0.6 | u | x | x | 0.655 | 1.8
COCCNC(=O)c1cnn2c(C(F)(F)F)cc(-c3ccc4c(c3)OCO4)nc12 | -58.7 | 9.7 | u | x | x | 0.702 | -2.9
COC(=O)CNC(=O)CCc1nnc(C2(c3ccc(Cl)cc3)CCC2)o1 | 1.8 | 0.3 | 2.1% | 0.5 | i | 0.676 | 1.3
CCN1CCN(C(c2cccs2)C(C)NC(=S)Nc2cc(C)ccc2C)CC1 (stereo not given) | -0.3 | -5.5 | 6.7% | -0.3 | i | 0.649 | 0.7

Complete entries from above:
COC(=O)c1cc2n(n1)CCN(Cc1ccccc1Cl)C2=O across the screens: UCH37 inh = 2.2; HNF4A DNA FP = -1.7; Vif TR-FRET = 2.6%; AF4-AF9 inh = x; FGF22 binding = x; Ecoli growth = 0.689; RanGTP-Impb inh = -4.4
CCC1(C)Cc2ccccc2-c2nc(SC)[nH]c(=O)c21 (stereo not given) across the screens: UCH37 inh = -6.3; HNF4A DNA FP = 5.8; Vif TR-FRET = x; AF4-AF9 inh = 0.1; FGF22 binding = i; Ecoli growth = 0.634; RanGTP-Impb inh = 4.4

Remaining list, next part.
SMILES | UCH37 inh | HNF4A DNA FP | Vif TR-FRET | AF4-AF9 inh | FGF22 binding | Ecoli growth | RanGTP-Impb inh
CCCOC(=O)NC1CCS(=O)(=O)C1 (stereo not given) | 0.1 | -2.2 | -0.8% | x | x | 0.726 | 9.1
COc1cccc(/C=N/NC(=O)c2nnn(-c3nonc3N)c2CN(C)C2CCCCC2)c1 | x | -2.8 | -0.5% | -1.4 | i | x | x
COc1ccc(F)c(CN2CCCC(CO)(Cc3cccc(Cl)c3)C2)c1 (stereo not given) | 1.8 | 1.9 | x | -5.2 | i | 0.671 | -2.0
O=S1(=O)CC(N2CCCCC2)CN1C1CCCCC1 (stereo not given) | x | 1.0 | x | -3.2 | i | x | x
Cc1cc(C(=O)N/N=C/c2cccc([N+](=O)[O-])c2O)n[nH]1 | x | 12.0 | u | 3.2 | i | x | -10.2
CC(C)(Oc1ccc(Cl)cc1)C(=O)Nc1cccc(S(=O)(=O)NC2=NCCC2)c1 | 4.5 | -0.5 | -7.3% | -7.9 | i | 0.682 | x
COc1ccc(C(CNC(=O)c2cc(S(=O)(=O)Nc3cccc(C)c3)ccc2C)N2CCOCC2)cc1 (stereo not given) | 4.4 | -1.9 | x | 0.5 | i | 0.689 | x
CCCCCN1C(=O)Cn2c(nc3ccccc3c2=O)C1C (stereo not given) | 1.1 | 2.3 | -4.9% | -0.8 | i | 0.702 | -0.5
CC1(C)CC(C(CC(=O)Nc2nccs2)c2ccccc2)CCO1 (stereo not given) | 0.0 | -0.1 | -11.2% | -5.1 | i | 0.676 | -2.7
CN(CC(=O)Nc1ccc(Cl)c(C(F)(F)F)c1)C(=O)c1cccnc1Sc1ccccc1 | -2.7 | 1.2 | x | 0.0 | i | 0.677 | -2.3
Cc1ccc2c(COC(=O)c3ccc(NC(=O)CC#N)cc3)cc(=O)oc2c1C | 0.8 | 5.7 | -16.5% | 6.2 | i | 0.643 | 0.3
CON(C)C(=O)CCN(C(=O)OC(C)(C)C)c1ccccc1 | -1.9 | 3.1 | x | -1.3 | i | 0.693 | x
CCc1nc2oc3ccccc3c(=O)c2cc1C(=O)OC | -3.7 | 1.7 | -4.8% | -0.7 | i | 0.724 | -2.3
COc1ccc(Cc2nnc(SCc3nc4ccccc4c(=O)[nH]3)n2C)cc1 | -0.8 | 2.8 | 9.8% | x | x | 0.639 | -2.7
CCOC(=O)c1c(C)c(C(=O)NCCc2ccc(S(N)(=O)=O)cc2)c(C)n1CC | -0.3 | -0.5 | -3.8% | x | x | 0.643 | 2.6
CC(C)OC(=O)CSc1nnc(Cc2ccccc2)n1Cc1ccco1 | 1.0 | -0.6 | 6.0% | x | x | 0.725 | x
COc1ccc(S(=O)(=O)N2CCCC(C(=O)Nc3ccc(NC(=O)c4ccccn4)cc3)C2)cc1 (stereo not given) | -2.1 | 4.4 | -1.8%&-7.6% | x | x | 0.712 | -0.1
COc1ccccc1CNC(=O)/C(C#N)=C/c1ccc(OC)c(OC)c1OC | 2.8 | 6.9 | -15.0% | 4.9 | i | 0.67 | -0.6
C/C(N)=C(/C#N)C(=O)CSc1nc2scc(-c3ccc(F)cc3)c2c(=O)n1C | 5.2 | 4.8 | x | -0.9 | x | 0.73 | -1.4
O=S(=O)(Cc1ccccc1)N1CCN(Cc2ccccc2)CC1 | 0.2 | 3.6 | 1.3% | x | x | 0.701 | -1.8
Cc1ccc(NC(=O)CSc2nc3c(cc2C#N)C(=O)CCC3)cc1S(=O)(=O)N(C)C | 6.2 | 1.5 | -4.4% | 2.7 | i | x | 7.7
O=C(COc1ccccc1)N[C@@H]1c2ccccc2CC[C@H]1OCc1ccccc1 | 1.0 | 0.5 | -2.1% | -3.9 | i | 0.715 | x
CC(C)=CCC[C@H](C)C[C@@H]1Cc2[nH][nH]c(=O)c2[C@H](c2ccc(F)cc2)O1 | x | -1.8 | x | -1.1 | i | x | x
Cc1onc(-c2c(F)cccc2Cl)c1C(=O)Nc1ccccc1N1CCOCC1 | 1.4 | 1.2 | -1.8% | x | i | 0.678 | -3.2
O=C(CCc1n[nH]c(=O)[nH]c1=O)N1CCCCC1 | 6.5 | -1.8 | -2.1% | -0.6 | i | 0.747 | 0.3
CCCNc1nc2c(c(=O)n(C)c(=O)n2C)n1CCC(C)C | 0.7 | -2.7 | -3.8% | x | x | 0.653 | 5.8
COC(=O)C1=C[C@@H](C(=O)OC)[C@@H]2C3=C(C(=O)[C@]2(C)NC(=O)c2ccccc2)[C@H](C)n2c(=O)n(-c4ccccc4)c(=O)n2[C@@H]3C1 | 1.8 | -1.6 | x | 1.0 | i | x | -2.3
CCCCCN(C(=O)COC(=O)CSc1ccc([N+](=O)[O-])cc1)c1c(N)n(CCCC)c(=O)[nH]c1=O | 4.2 | 2.0 | -4.4% | -3.6 | i | 0.708 | 7.7
COc1ccc(N2C(=O)CC(Cc3ccccc3OC)C2=O)cc1 (stereo not given) | 3.0 | -0.9 | -2.4% | -1.9 | i | 0.64 | 2.9
Cc1cc(C)cc(NC(=O)NCc2c(-c3ccccc3)noc2C)c1 | 2.2 | -2.4 | -3.9% | -1.2 | i | 0.715 | -1.5
C=CCN1C(=O)/C(=C\C(C)=C\c2ccccc2)SC1=S | x | 0.0 | x | 9.4 | i | x | 0.0
O=C(NCC(c1cccnc1)N1CCN(c2ccccc2F)CC1)c1ccco1 (stereo not given) | 1.9 | 0.2 | 0.9% | -1.0 | i | 0.725 | -1.4
COc1cccc(C(=O)Nc2cccc3ccccc23)c1OC | -1.9 | 3.1 | -7.6% | -3.6 | i | 0.692 | -0.2
O=C(Cc1ccccc1)NNC(=O)Nc1ccc(Cl)c(Cl)c1 | -0.1 | -2.6 | -0.7% | 0.1 | i | 0.698 | -0.4
COc1ccc(NC2CCCN(C(=O)CCN3CCCC3=O)C2)cc1OC (stereo not given) | -0.8 | 3.7 | x | -8.3 | i | 0.7 | 0.6
O=C(O)c1ccc(Cn2cnc3cccnc32)cc1 | -5.2 | -3.8 | 0.4% | 0.1 | i | 0.65 | -1.2
Cc1cccc(C)c1-n1nnnc1C(c1ccccc1OC(F)(F)F)N1CCN(C/C=C/c2ccccc2)CC1 (stereo not given) | x | 2.1 | x | 6.9 | i | x | x
O=C(COc1ccccc1Cl)NNC(=O)c1cc(S(=O)(=O)N2CCOCC2)ccc1N1CCCC1 | 4.1 | -1.2 | x | -0.4 | i | 0.701 | 0.6
Cn1c(=O)c2c(ncn2CC(=O)Nc2ccccc2Sc2ccccc2)n(C)c1=O | 4.2 | -1.9 | -3.3% | x | x | 0.724 | 9.3
COc1ccc(/C=C2/NC(=O)N(Cc3ccccc3F)C2=O)cc1OC | -1.5 | -0.9 | 11.3% | 0.1 | i | 0.706 | 2.6
Cc1ccc(C(=O)OCCN2CCN(c3ncc(C(F)(F)F)cc3Cl)CC2)cc1 | 1.2 | -1.1 | 3.8% | x | x | 0.706 | 1.5
CCCOc1ccc(NC(=O)C2CCCNC2=O)cc1 (stereo not given) | 4.2 | -2.4 | 3.2% | x | x | 0.74 | 3.9
CCOC(=O)CSc1nc2cc(C(=O)N3CCC(C(N)=O)CC3)ccc2c(=O)n1C1CCCCC1 | 2.7 | 4.2 | 13.4% | -0.7 | i | 0.656 | -2.3
Cc1cc(O)c(Sc2ccc(Cl)cc2)c(=O)[nH]1 | 1.8 | -3.5 | x | -0.9 | i | 0.669 | -0.9
Cc1cc(C(=O)CCC(=O)N(C)CC(=O)Nc2c(Cl)cccc2Cl)c(C)s1 | 1.7 | 3.8 | -3.4% | 0.6 | i | 0.729 | -2.0
COc1cc(C)nc(N2CCCC(C(=O)Nc3cc(Cl)ccc3OC)C2)n1 (stereo not given) | 5.8 | 1.7 | 3.7% | x | x | 0.672 | 1.7
CCc1ccc(-c2nnn(CCC#N)n2)cc1 | 0.8 | 0.4 | -3.3% | -2.2 | i | 0.64 | -0.4
COC(=O)C(Cc1cnc(Cl)s1)(C(=O)OC)c1ccc([N+](=O)[O-])cc1[N+](=O)[O-] | 3.5 | -1.9 | 3.0% | x | x | 0.719 | -2.1
CCc1cccc(CC)c1NC(=S)NCc1ccc2[nH]c(C)cc2c1 | 1.8 | 2.9 | 8.3% | -3.7 | i | 0.743 | -3.1
COc1ccc(C(CNC(=O)C(Cc2ccccc2)NC(N)=O)N(C)C)cc1 (stereo not given) | -1.4 | 3.4 | 1.9% | 2.8 | i | 0.617 | 1.7
CC(C)(C)NC(=S)Nc1ccc(Br)cc1 | 3.2 | 2.7 | -1.0% | x | x | 0.695 | 1.9
O=C1c2ccc(-c3ccc4c(c3)C(=O)N(CCCO)C4=O)cc2C(=O)N1CCCO | -208.5 | -3.7 | 12.6% | -4.2 | i | 0.66 | 3.5
Cc1cccc(NC(=O)CSc2ccc(-c3ccco3)nn2)c1C | 1.2 | -5.2 | x | x | x | 0.703 | -2.5
Cc1cccc(C)c1OCC(=O)N(Cc1ccc(Cl)cc1)C1CCS(=O)(=O)C1 (stereo not given) | -1.2 | -0.1 | 2.4% | 0.4 | i | 0.702 | 3.6

Screens (PubChem BioAssay)

Some of the compounds tested; rates above refer to the full screens.
